Source: PubChem (National Center for Advancing Translational Sciences (NCATS))
Cruzain noTriton = inhibitors of Trypanosoma cruzi cruzain without detergent | P25779 | purified cruzain, Z-FR-AMC fluorescence, no detergent | Potency, µM, for the others: max response, negative = inhibition, usual class: inhibitors | 200,000 compounds, 2.3% hits | AID 1476;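 also: plate controls were enzyme without inhibitor for no effect and buffer without enzyme for full effect; nearly all actives have a fitted effect of over 40% in size; top concentration of the series not given in the record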
Target sequence (P25779 123-467 limits assumed): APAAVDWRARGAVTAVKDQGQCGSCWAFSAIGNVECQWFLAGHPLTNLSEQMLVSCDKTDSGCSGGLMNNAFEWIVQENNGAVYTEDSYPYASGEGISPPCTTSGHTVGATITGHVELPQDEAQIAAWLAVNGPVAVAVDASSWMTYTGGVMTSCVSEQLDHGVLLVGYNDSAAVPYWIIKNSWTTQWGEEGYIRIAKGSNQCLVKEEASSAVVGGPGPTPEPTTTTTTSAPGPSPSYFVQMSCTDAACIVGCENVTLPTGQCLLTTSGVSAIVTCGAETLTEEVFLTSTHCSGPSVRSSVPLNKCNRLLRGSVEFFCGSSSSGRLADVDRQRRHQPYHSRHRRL
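Purified cruzain at 1.5 nM, pre-incubated 15 min with compound at room temperature in 100 mM sodium acetate pH 5.5, 5 mM DTT, 0.00005% Triton X-100. Reaction started with 2 uM Z-FR-AMC; AMC fluorescence increase over 60 s gives rate.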
Lassa entry inh = blocks Lassa virus binding to or entry into cells. AID 540256. Lassa virus pseudotype entry inhibition, cell reporter; control for the full effect not named in the record. Potency, µM (top dose mostly 37.9 µM), inactives show top-dose activity change, negative = inhibition, most hits filed as inhibitors. 300,000 compounds, 1.2% hits; active means well fitted inhibition curve with a large enough effect; inconclusive means small, poorly fitted or top-dose-only effect, or effect the other way; inactive means flat fitted curve, though single readings scatter; tested in HEK293 cells; also: % is scaled to controls: 0 for no effect and ±100 for the full control effect; nearly all actives have a fitted effect of over 50% in size; luciferase read-out
RE007 growth inh = less growth of the S. pombe RE007 Vpr strain | S. pombe RE007 Vpr strain, BacTiter-Glo ATP luminescence, 24 h; control for the full effect not named in the record | Potency, µM (doses to about 92.2 µM), for inactives: at the top dose activity change, negative = less growth | 360,000 compounds, 0.21% hits | AID 651644; active = well fitted falling curve with a large enough effect; inconclusive = small, poorly fitted or top-dose-only effect; inactive = no such curve, though single readings can be large or run the other way;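 also: % is scaled to controls: 0 for no effect and ±100 for the full control effect; nearly all actives have a fitted effect of over 50% in size; the assay follows cell death caused by Vpr and the record does not say whether a fall means rescue or toxicity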
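Fission yeast RE007 carrying one integrated HIV-1 vpr copy, seeded at OD 0.01 in PMG+AL medium with 23 nL pinned compound. Grown 24 h at 30 degrees; viability read by BacTiter-Glo luminescence after 5 min.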
Marburg entry inh = blocks Marburg virus binding to or entry into cells; Marburg virus pseudotyped entry inhibition, cell reporter; control for the full effect not named in the record; about a third of the inactives were read at about 46 µM; 300,000 compounds, 1.8% hits; Potency, µM (titrated, usually from 37.8 µM), inactives show top-dose activity change, negative = inhibition, most hits filed as inhibitors; AID 540276; active = well fitted inhibition curve with a large enough effect; inconclusive = small, poorly fitted or top-dose-only effect, or effect the other way; inactive = flat fitted curve, though single readings scatter; tested in HEK293 cells; about a fifth of its hits are not listed in these tables; also: % is scaled to controls: 0 for no effect and ±100 for the full control effect; luciferase read-out
SARS PLP yeast = SARS-CoV PLP inhibition in yeast. Potency, µM (series often up to 32.9 µM), without a hit: top-dose activity, positive = growth rescue. 330,000 compounds, 0.19% hits. S. cerevisiae expressing SARS-CoV PLpro, growth rescue; control for the full effect not named in the record. AID 485353; active means well fitted rising curve with a large enough effect; inconclusive means small, poorly fitted or top-dose-only effect; inactive means no such curve, though single readings can be large or run the other way; also: 0% is about no effect; nearly all actives have a fitted effect of over 55% in size; growth read by luminescence after 48 h
NS1 function inh = blocks influenza NS1 protein function | S. cerevisiae slowed by influenza A NS1, growth recovery by OD600 | 270,000 compounds, 0.4% hits | Potency, µM (highest dose often 46.1 µM), without a hit: at the highest dose activity, positive = more growth; active means well fitted rising curve with a large enough effect; inconclusive means small, poorly fitted or top-dose-only effect; inactive means no such curve, though single readings can be large or run the other way; also: nearly all actives have a fitted effect of over 50% in size
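Recovery from NS1-induced slow growth read by OD600 in budding yeast switched to galactose assay medium (pH 6.0, -URA) at 1:100 dilution. Compound 23 nl per well; the matching strain lacking NS1 serves as control.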
Cruzain Triton = cruzain (T. cruzi) inhibition with detergent; purified cruzain, Z-FR-AMC fluorescence, 0.01% Triton; Potency, µM, for inactives: max response, negative = inhibition, most hits filed as inhibitors; 200,000 compounds, 0.43% hits;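 also: plate controls were neutral wells for no effect and buffer without enzyme for full effect; nearly all actives have a fitted effect of over 40% in size; top concentration of the series not given in the record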
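Enzyme 1.5 nM, Z-FR-AMC 2 uM, NaOAc 100 mM pH 5.5, DTT 5 mM, Triton X-100 0.01%; 15 min RT compound preincubation; kinetic ex360/em450, 60 s delta.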
2A StopGo = FMDV 2A StopGo reporter, luciferase signal. human cells with a luciferase reporter of 2A StopGo recoding; control for the full effect not named in the record. Potency, µM (doses to about 57.9 µM), for inactives: at the highest dose signal change, negative = less light. 410,000 compounds, 1.2% hits. AID 1159524; active = well fitted falling curve with a large enough effect; inconclusive = small, poorly fitted or top-dose-only effect; inactive = no such curve, though single readings can be large or run the other way; tested in HEK293T cells; also: % is scaled to controls: 0 for no effect and ±100 for the full control effect; nearly all actives have a fitted effect of over 45% in size; luciferase light after 4 h
An asterisk follows results filed as active; ? = inconclusive; . = no result given; & = joins results of further samples; [ ] = remark or other dose. Unless noted, calls follow the shape of the dose curve; as a rule, active = well fitted curve in the direction sought with a large enough effect; inconclusive = small, poorly fitted or top-dose-only effect, or another doubt; inactive = no such curve, though single readings can be large; an effect the other way counts as inactive or inconclusive. Potency is read from the fitted curve at half-maximal effect.

SMILES | Cruzain noTriton | Lassa entry inh | RE007 growth inh | Marburg entry inh | SARS PLP yeast | NS1 function inh | Cruzain Triton | 2A StopGo
Oc1ccccc1-c1cc(-c2ccccc2)no1 | ? | ? | -18.0% | ? | -22.4% | -68.3% | -0.3% | 9.8%
Cc1cc(C)n(-c2nc3ccccc3nc2Nc2cc(Cl)ccc2C)n1 | 2.1% | 0.0%[46.1 µM] | . | 0.9%[46.1 µM] | . | . | 2.4% | -10.0%
Cn1cnnc1SCC(=O)Nc1ccc(Cl)cc1 | . | . | 7.8% | . | 5.4% | 6.6% | . | 25.0%
CC(C)[C@H]1C(=O)O[C@@H]2CCN3CC=C(COC(=O)[C@](C)(O)[C@]1(C)O)[C@H]23 | . | . | -1.0% | . | 0.7% | 7.0% | . | -9.6%
O=C(COC(=O)c1ccc(Cl)nc1)Nc1cc(S(=O)(=O)N2CCCCC2)ccc1Cl | . | 8.4% | 23.9% | -15.2%[46.1 µM] | -15.6% | -33.9% | . | -10.2%
CC(=O)Nc1ccc(C(=O)OCCC(C)C)cc1 | 0.4% | 25.9% | 10.5% | ? | -10.1% | -128.7% | -2.7% | 62.9%[activator]
CN(C)CCN(C(=O)c1cccc(N2C(=O)CCC2=O)c1)c1nc2ccc(Br)cc2s1 | . | 6.9% | -9.8% | -10.8% | 1.7% | 4.4% | . | -11.4%
COc1cccc(NS(=O)(=O)c2cc3[nH]c(=O)c(=O)[nH]c3cc2C)c1 | . | . | -10.0% | . | 4.4% | -3.5% | . | 2.3%
Cc1nc(-c2ccc(Cl)cc2)sc1CCNC(=O)C(=O)Nc1ccc2c(c1)OCCO2 | -14.4% | -9.3%[46.1 µM] | . | . | . | . | -0.7% | -14.2%
O=C(c1cc(F)c(F)cc1Cl)N1CCN(S(=O)(=O)c2cccs2)CC1 | . | ? | 2.1% | -16.6%[46.1 µM] | -10.7% | . | . | -11.2%
COc1ccc2c(c1)[nH]c1c(N3CCSCC3)ncnc12 | . | ? | -0.3% | ? | -2.3% | -5.2% | . | 25.1µM*
Cc1c(Br)c(C(=O)NNC(=O)c2ccc(C(C)(C)C)cc2)nn1C | . | . | -5.9% | . | 2.3% | -2.5% | . | 28.1%
Cc1cccn2c(=O)c3cc(C(=O)NCCc4ccccc4)sc3nc12 | . | -18.7% | 2.6% | ? | 1.3% | -8.0% | . | 0.0%
COC(=O)CNC(=O)C(Cc1ccccc1)NS(=O)(=O)c1ccc2c(c1)c(=O)n(C)c(=O)n2C (stereo not given) | 3.7% | -0.6%[46.1 µM] | -13.2% | -3.0%&-3.0%[46.1 µM] | -0.4% | . | 0.9% | ?
COc1ccc(CCNC(=O)c2ccc3c(c2)CCN3S(=O)(=O)c2ccc(Cl)cc2)cc1 | -22.2% | ? | . | ? | . | . | 0.5% | -24.4%
COc1ccc(OC)c(CNC(=O)c2cc(=O)[nH]c3ccc(S(=O)(=O)N4CCCCC4C)cc23)c1 (stereo not given) | ? | ? | . | . | . | . | -0.1% | 2.8%
CCOC(=O)C(=NC(C)CC)NNc1cccc(C(F)(F)F)c1 (stereo not given) | -2.5% | 6.5% | 67.2% | -4.0% | -34.1% | -43.3% | -7.1% | -18.6%
CCC(=O)Nc1cccc(NC(=O)CSc2nnc(-c3ccc(NS(C)(=O)=O)cc3)n2C)c1 | -1.3% | -3.0% | -4.3% | 9.9% | -0.6% | -1.7% | -2.5% | -7.9%
CC(=O)c1ccc(N2CCN(S(=O)(=O)c3ccc4c(c3)CC(=O)N4C)CC2)cc1 | . | . | 6.3% | . | 1.1% | 24.2% | . | -14.1%
COc1ccc(C(=O)COC(=O)C2CCN(c3ccc(C(F)(F)F)cn3)CC2)c(OC)c1 | . | 25.0% | -18.1% | 0.0% | 2.4% | . | . | -11.7%
CCCCNC(=O)c1ccc2c(c1)N(CC)C(=O)c1ccccc1S2(=O)=O | 1.1% | . | -10.4% | . | -0.4% | -15.4% | 8.7% | -7.9%
CC1(C)CC(=O)C(Br)=C(O)C1 | . | . | -12.6% | -1.5%[46.1 µM] | 2.1% | 3.4% | . | -4.3%
OC(c1cccs1)(c1cccs1)C1C[N+]2(CF)CCC1CC2 (stereo not given) | 6.2% | 3.0% | -2.8% | 9.1% | 0.5% | 0.6% | -0.5% | .
CCOc1ccc(C(=O)Nc2ccc(Cl)cn2)cc1Cl | -8.4% | ? | 12.8% | -9.4% | -0.1% | -3.1% | 0.0% | .
COC(=O)[C@@H]1C[C@@]2(O)[C@H](O)[C@H](O)[C@H](O)C[C@H]2N1CC(c1ccccc1)c1ccccc1 | 3.5% | . | 8.1% | . | -0.2% | 4.6% | 5.7% | -4.9%
Cc1ccccc1N1CCN(C2CCCN(C(=O)c3cn4cccc(C)c4n3)C2)CC1 (stereo not given) | . | . | -6.0% | . | -2.5% | -22.9% | . | 44.7µM*
Cc1nn(-c2ccc(N3CCCC3)nn2)c(C)c1CCC(=O)NCc1ccccc1 | -1.5% | 25.4%[46.1 µM] | . | . | . | . | -3.8% | 2.0%
CN(CCNC(=O)C1CCN(c2ncnc3c2nc2n3CCCCC2)CC1)Cc1ccccc1 | . | ? | 2.1% | ? | -3.5% | -4.1% | . | -1.0%
O=C1NCN(c2ccccc2)C12CCN(CC1COc3ccccc3O1)CC2 (stereo not given) | 2.3% | -28.2% | . | ? | . | -5.9% | -4.4% | 1.7%
O=C1Nc2ccccc2/C1=C/c1cccnc1 | . | ? | -9.6% | ? | -17.0% | . | . | -30.3%
CCCCC(O)(CCCC)C(=O)NNc1ccccc1 | 10.1% | -7.3% | 79.8% | -1.3% | 25.6% | 13.0% | 0.1% | 5.8%
O=C(COC(=O)/C=C/c1ccccc1Cl)NCCc1ccc(Cl)cc1Cl | 4.2% | 0.0% | -11.1% | -2.0% | 7.0% | -7.0% | -3.3% | -2.3%
CCOC(=O)C1CCN(c2c(NCCN3CCN(c4ccccc4)CC3)c(=O)c2=O)CC1 | -6.1% | -4.0% | 11.9% | 8.3%&8.3% | 8.4% | 6.0% | -0.6% | -17.0%
CCNCCNC(=O)c1c(O)c2ccccc2n(CC)c1=O | -9.0% | 21.7% | -5.0% | 0.5% | -2.4% | -2.6% | 5.1% | -12.9%
O=C(O)C1CCCN1C(=O)C1CCN(S(=O)(=O)c2cccc(C(F)(F)F)c2)CC1 (stereo not given) | . | 13.2% | 9.3% | 4.7% | 1.7% | . | . | -2.6%
CCN=c1scc(-c2ccc(F)cc2)n1/N=C/c1ccccn1 | . | ? | 5.1% | ? | -4.3% | . | . | -13.5%
Cc1ccc(OCC(=O)Nc2ccc3nn(-c4ccc(C)cc4)nc3c2)cc1 | -2.5% | ? | . | ? | . | . | 0.1% | 39.5%[activator]
C=CCn1c(O)c(C(CC)=Nc2cccc(C(F)(F)F)c2)c(=O)[nH]c1=O | . | -13.3%[46.1 µM] | -7.7% | ? | -0.3% | 3.8% | . | -5.9%
COc1ccc(CCN2C(=NC(=O)CC(C)C)SC3CS(=O)(=O)CC32)cc1 (stereo not given) | 4.4% | 1.2% | -3.2% | -5.8% | 2.3% | 0.8% | -4.2% | 6.2%
COc1ccc(CCC(=O)N2CCN(S(=O)(=O)c3ccc(OC(F)(F)F)cc3)CC2)cc1 | . | -16.7% | ? | -6.4% | -4.6% | . | . | -26.7%
O=S(=O)(c1ccc(OCC(O)CN2CCN(c3ccccc3O)CC2)cc1)N1CCOCC1 (stereo not given) | 8.1% | ? | -5.9% | -19.8% | -3.1% | 1.2% | 7.2% | .
CN1CCN(C(=O)C2=C[C@@H](C3CC3)C[C@@H](OCc3ccc(CO)cc3)O2)CC1 | . | . | 2.7% | . | 0.9% | 3.4% | . | -3.1%
C=CCn1c(N)cc(=O)nc1SCC(=O)Nc1cccc2ccccc12 | 4.0% | 0.2% | -3.3% | -3.1% | -2.6% | 11.9% | -2.2% | -14.0%
O=C(Nc1ccc(F)cc1)c1ccc2[nH]c(=O)c(=O)[nH]c2c1 | . | . | 4.5% | . | 0.0% | 9.7% | . | -8.1%
COc1ccc(CC(=O)N2CCOCC2)cc1OC | -8.2% | 12.8% | 12.4% | -5.1% | 1.4% | -0.5%[9.22 µM] | 2.9% | -7.8%
CCN(CC)C(=O)Cn1cc(S(=O)(=O)CC(=O)Nc2ccc(OC)c(OC)c2)c2ccccc21 | . | 9.2% | -15.2% | 8.8% | -3.4% | 3.8% | . | -15.7%
O=C(CSc1ccccc1)Nc1ccc(N2CCOCC2)cc1 | -7.7% | ? | -8.0% | -10.9% | 11.7% | 1.3% | 2.8% | 42.0%[activator]
C(=C\c1ccccc1)/CSc1nnc(-c2cccnc2)n1Cc1ccco1 | -9.4% | 1.3% | -0.2%[3.69 µM] | 1.4% | -1.4% | -15.1% | -3.4% | -6.0%
CCCc1nnc(SCC(=O)N2CCCC(C)C2)n1CCOC (stereo not given) | . | ? | 9.1% | -0.8%[46.1 µM] | 1.2% | . | . | 2.0%
COCC(C)NC(=O)CCS(=O)(=O)c1nc(-c2ccc(OC)cc2)cc(C(F)(F)F)n1 (stereo not given) | 3.7% | ? | 25.0% | ? | -2.3% | -3.5% | -9.4% | 31.6µM*
CCCCCOC(=O)C1C(c2ccccc2)C(C(=O)O)C1c1ccccc1 (stereo not given) | 18.2% | -23.6% | -4.2% | -1.5% | -2.4% | -16.8% | -7.8% | -22.6%
CCOC(=O)/C(C#N)=C/Nc1ccccc1NS(=O)(=O)c1cccc(C(C)=O)c1 | . | 6.3%[46.1 µM] | -9.6% | ? | 0.9% | . | . | 3.9%
Cc1cc2c(N=O)c(NO)ccc2[nH]1 | -4.0% | ? | -17.9% | 1.41µM* | -1.3% | -39.5% | -7.0% | -2.2%

Compounds were not picked by outcome; any-hit rate near 4.7%.
